Assay outcomes deposited in PubChem by National Center for Advancing Translational Sciences (NCATS).
VDR inhibitor = Inhibitors of the vitamin D receptor (VDR): qHTS; hit rate 0.93% among 400,000; Potency, µM, for inactives: max response, negative = inhibition, actives largely listed as inhibitors; VDR-SRC2-3 peptide fluorescence polarization, 2 h; Vitamin D3 receptor (Homo sapiens), P11473; AID 504847, 2011; active means well fitted inhibition curve with a large enough effect; inconclusive means small, poorly fitted or top-dose-only effect, or another doubt; inactive means no such curve, though single readings can be large or run the other way; further: series mostly up to about 120 µM
Target sequence (P11473 whole entry, looked up): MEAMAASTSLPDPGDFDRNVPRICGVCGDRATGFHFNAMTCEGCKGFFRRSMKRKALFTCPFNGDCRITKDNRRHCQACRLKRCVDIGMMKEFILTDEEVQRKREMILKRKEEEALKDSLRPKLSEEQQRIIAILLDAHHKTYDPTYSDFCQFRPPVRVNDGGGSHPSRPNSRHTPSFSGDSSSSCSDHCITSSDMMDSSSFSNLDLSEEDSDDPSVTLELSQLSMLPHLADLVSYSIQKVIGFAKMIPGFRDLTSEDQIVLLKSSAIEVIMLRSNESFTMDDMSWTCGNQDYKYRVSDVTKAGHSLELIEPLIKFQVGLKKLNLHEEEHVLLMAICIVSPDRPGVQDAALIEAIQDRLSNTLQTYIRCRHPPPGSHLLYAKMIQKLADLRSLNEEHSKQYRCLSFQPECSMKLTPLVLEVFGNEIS
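Fluorescence polarization assay measuring small-molecule disruption of VDR binding to the coregulator peptide SRC2-3. Compounds were pin-transferred (23 nl) into the reagent mix and incubated 2 h at room temperature before reading.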
Numbers without * were called inactive; u = inconclusive; & = joins results of further samples. On the % scale 0 is the no-effect control and ±100 the full control effect; potency means the concentration at half of the fitted maximal effect. Only part of the results is shown, so the mix of outcomes need not match the whole.

VDR inhibitor	compound
u	Cc1ccc2nc(N3C(=O)C(O)=C(C(=O)c4ccco4)C3c3cccs3)sc2c1 (stereo not drawn)
-15%	Cn1cc(/C=N/n2cnc3scc(-c4ccccc4)c3c2=O)c2ccccc21
-4%	Cn1cccc1C(=O)NC(=O)COC(=O)c1cc([N+](=O)[O-])ccc1Cl
14%	O=C(NCc1ccc(Cl)cc1)c1ccc2c(c1)nnn2C1CCCC1
10%	CCC(C)(C(=O)NC1CCCC1)N(CC1CCCO1)C(=O)c1ccc2c(c1)OCO2 (stereo not drawn)
0%	COc1ccc(Nc2nc3c(S(=O)(=O)c4ccc(C)cc4)nnn3c3ccsc23)cc1Cl
14%	C=CCOc1ccc(C2/C(=C(\O)c3c(C)[nH]c(C(=O)OC)c3C)C(=O)C(=O)N2CCN(C)C)cc1 (stereo not drawn)
u	O=C(O)C1CSC(c2coc3ccccc3c2=O)N1 (stereo not drawn)
-2%	CCC(=O)N1CCc2cc(Br)cc(S(=O)(=O)N3CCCC(C(=O)Nc4cccc(C)c4C)C3)c21 (stereo not drawn)
-13%	Cc1ccc(C)c(NC(=O)c2cnc3n(c2=O)CCS3)c1
-18%	CCOC(=O)N1CCN(C(=O)c2ccc(-n3c(C)ccc3C)cc2)CC1
-13%	C=CCN(Cc1nc(-c2ccccc2)no1)C(=O)c1ccoc1C
3%	CN1C(=O)c2ccc(N(C)C)cc2C1=O
-13%	CCN(CC)C(=O)CN1CCC(n2c(C)nc3cc(C(F)(F)F)ccc32)CC1
-17%	O=C(CCCn1c(=S)[nH]c2ccsc2c1=O)NCCc1ccccc1
14%	Cc1cc2ccccc2n2c(SCC(=O)N3CCOCC3)nnc12
2%	O=C(COC(=O)c1ccccc1NCCO)NCC1CCCCC1
0%	CN1CCc2c1nc1ccccc1c2N (tested in a mixture with another compound)
-15%	C=CCn1c(SCc2csc(C)n2)nc2scc(-c3ccc(C)o3)c2c1=O
-6%	O=C(CSc1nnc(NC2CC2)s1)c1ccc[nH]1
-4%	COC(=O)c1cc(OC)c(OC)cc1NC(=O)CCc1ccc(C)o1
12%	CSCC[C@H](NC(=O)c1nn(C)c(=O)c2ccccc12)c1nc2ccccc2[nH]1
-16%	Cc1ncc(CN2CCC(CO)(CCc3ccccc3)CC2)s1
12%	CCC1C(=O)N=C(SCC(=O)Nc2ccc(C)cc2)N(c2ccccc2)C1=O (stereo not drawn)
-7%	Cc1cccc(NS(=O)(=O)c2cccc(C(=O)NCC(c3ccc(F)cc3)N3CCOCC3)c2)c1 (stereo not drawn)
18%	COC(=O)c1sccc1-c1ccc(/C=N/OCc2c(Cl)cccc2Cl)o1
-12%	CC(=O)Nc1cccc(C(=O)OCC(=O)Nc2nnc(-c3ccccc3)o2)c1
-14%	Cc1ccc(/C=N/Nc2cccc(C(=O)O)c2)s1
6%	COc1ccc(C2(O)CCN(CC(=O)Nc3nc(-c4ccccc4)cs3)CC2)cc1
7%	O=C(c1cc(Cl)c(=O)n(Cc2ccccc2)c1)N1CCOCC1
-10%	c1csc(CCNc2ncnc3sc4c(c23)CCC4)c1
-11%	COc1ncc2nc(-c3cccs3)c(=O)n(Cc3ccc(F)cc3)c2n1
-9%	C#CCOCCOCCOCCNc1nc(N2CCN(C(=O)C([C@@H](C)CC)n3cc(C(N)COC(=O)C(F)(F)F)nn3)CC2)nc(N2CCN(C(=O)[C@H](CCCCN)n3cc(C(N)CC(C)C)nn3)CC2)n1 (stereo partly drawn)
-12%	CCN1C(=O)[C@H]2[C@@H](c3ccc(C)cc3)N3C(=O)N(c4cccc(F)c4)C(=O)[C@@]3(C)[C@H]2C1=O
-4%	O=C(O)c1cccnc1Nc1ccc(Cl)cc1
-18%	O=C(COc1coc(CN2CCN(c3ccccc3)CC2)cc1=O)NCC1CCCO1 (stereo not drawn)
-17%	CN(C)CCOC(C1CCCCC1)C1CCCCC1
-3%	COc1ccc(-c2csc(NC(=O)CC(NC(C)=O)c3ccccc3)n2)cc1OC (stereo not drawn)
-10%	Cc1ccc(OCC(=O)Nc2ccc(S(=O)(=O)Nc3ncccn3)cc2)c(C(C)(C)C)c1
2%	COc1ccccc1N1CCN(C(=O)Nc2cn(CC(C)C)c(=O)c3ccccc23)CC1
-7%	CCOc1ccc2oc(C(=O)Nc3cc(C)ccn3)c(C)c2c1
2%	Cc1cccc(CCNC(=O)c2cccc3c2C(=O)N(C2CCCCC2)C3)c1
3%	CSc1ccccc1-c1nc(-c2ccncc2)no1
-12%	Cc1ccccc1OCC(=O)N1N=C(c2cccnc2)CC1(O)C(F)(F)F (stereo not drawn)
-13%	COc1ccc(C(=O)N(Cc2ccco2)Cc2cccs2)cc1
-23%	CCN1CCN(c2ccc(NC(=O)CCc3c(C)nc4c(-c5ccc(F)cc5)c(C)nn4c3C)cc2)CC1
0%	Cc1cccc(OCCC(=O)Nc2ccc(F)c(Cl)c2)c1
-16%	CCN(CC)C(=O)[C@H]1C[C@H](CC(=O)NCCN2CCOCC2)C(=O)N2CCc3c([nH]c4cc(-c5ccco5)ccc34)[C@]12C
-19%	Cc1ccc(C(=O)C(C)[n+]2cccc(C(N)=O)c2)cc1 (stereo not drawn)
-5%	COc1cc(/C=N/N2C(=O)CSC2=S)ccc1O
-5%	COc1ccc(NC(=O)CSc2nc3sc(C)c(C)c3c(=O)n2Cc2ccco2)cc1
3%	COc1ccccc1-c1nnc2n(CCc3ccccc3)c(=O)c3ccccc3n12
-20%	COc1ccc(CCC(=O)Nc2ccc(N3CCOCC3)cc2)cc1
-14%	COc1cc(OC)c(OC)cc1CNCCNC(=O)c1nonc1N
-19%	CCCNC(=O)Nc1ccc(NC(C)=O)cc1
-16%	CCC(C)NC(=O)C1CCN(S(=O)(=O)c2cccs2)CC1 (stereo not drawn)
11%	Cc1ccc2c(=O)cc(C(=O)Nc3c(C)cccc3C)oc2c1
-6%	Cc1ccc2c(c1)CCCN2C(=O)c1cccs1
23%	COc1ccc(CNC(=O)CCCn2c(=S)[nH]c3cc4c(cc3c2=O)OCO4)cc1
-5%	Cc1nc2ccccn2c1-c1csc(NCc2ccco2)n1

Part of the list above in order of number of heavy atoms, lowest first:
VDR inhibitor	compound
-19%	CCCNC(=O)Nc1ccc(NC(C)=O)cc1
-6%	Cc1ccc2c(c1)CCCN2C(=O)c1cccs1
3%	CSc1ccccc1-c1nc(-c2ccncc2)no1
-19%	Cc1ccc(C(=O)C(C)[n+]2cccc(C(N)=O)c2)cc1 (stereo not drawn)
0%	Cc1cccc(OCCC(=O)Nc2ccc(F)c(Cl)c2)c1
-5%	Cc1nc2ccccn2c1-c1csc(NCc2ccco2)n1
-13%	COc1ccc(C(=O)N(Cc2ccco2)Cc2cccs2)cc1
-20%	COc1ccc(CCC(=O)Nc2ccc(N3CCOCC3)cc2)cc1
-12%	Cc1ccccc1OCC(=O)N1N=C(c2cccnc2)CC1(O)C(F)(F)F (stereo not drawn)
2%	Cc1cccc(CCNC(=O)c2cccc3c2C(=O)N(C2CCCCC2)C3)c1
23%	COc1ccc(CNC(=O)CCCn2c(=S)[nH]c3cc4c(cc3c2=O)OCO4)cc1
-5%	COc1ccc(NC(=O)CSc2nc3sc(C)c(C)c3c(=O)n2Cc2ccco2)cc1
-23%	CCN1CCN(c2ccc(NC(=O)CCc3c(C)nc4c(-c5ccc(F)cc5)c(C)nn4c3C)cc2)CC1
-16%	CCN(CC)C(=O)[C@H]1C[C@H](CC(=O)NCCN2CCOCC2)C(=O)N2CCc3c([nH]c4cc(-c5ccco5)ccc34)[C@]12C

Other entries.
VDR inhibitor	compound
-2%	O=C(NCCNS(=O)(=O)c1ccccc1)c1ccc([N+](=O)[O-])cc1
10%	CCOc1ccc(C(=O)Nc2ccc3nc(SCC(=O)N4CCOCC4)sc3c2)cc1
-15%	COc1ccc(OCC(=O)Nc2c(C)ccc3nsnc23)cc1
21%	COc1ccc(C(C#N)=Cc2ccc(NC(C)=O)cc2)cc1
11%	CC(O)CNC(=O)C1CCN(Cc2ccc(OCc3ccccc3)cc2)CC1 (stereo not drawn)
-3%	CCCC(C)NC(=O)COC(=O)c1cccc(NS(C)(=O)=O)c1 (stereo not drawn)
14%	CCOc1ccc(-n2c(C)c(C(=O)O)c3cc(OC)ccc32)cc1
-3%	Cc1ccc(-c2cc(C(F)F)n3ncc(C(=O)N4CCCc5ccccc54)c3n2)cc1
13%	CCOC(=O)c1ccc(NC(=O)c2cc3c([nH]c2=O)CC(c2ccccc2)CC3=O)cc1 (stereo not drawn)
-1%	COc1ccc(-c2cnc(N)nc2-c2ccc(OC)cc2O)cc1
5%	CC(=O)c1c(C)nc(-c2ccc(OCC(=O)Nc3cccc(C)c3C)cc2)n1O
3%	O=C(NCCCN1CCOCC1)C(=O)NCC1OCCN1S(=O)(=O)c1cc(F)ccc1F (stereo not drawn)
u	COCOc1ccccc1C(=O)/C=C/c1ccccc1
-2%	CCCCCOC(=O)CSc1ncnc2c1sc1nc(N3CCOCC3)c3c(c12)CCCC3
7%	Cc1ccc(NC(=O)N2CCc3cc(S(=O)(=O)N4CCC(C)CC4)ccc32)cc1
9%	CCCCCCn1c(CN2CCC(C)CC2)nc2c1c(=O)n(C)c(=O)n2C
-18%	c1ccc(-c2ccc3c(c2)NCCN3)cc1
2%	COc1ccc(CCNC(=O)c2cc(C)oc2C)cc1OC
2%	O=C(/C=N/O)NCc1cccnc1
3%	Cc1ccc(NC(=O)CSc2nnc(C)n2C2CC2)cc1S(=O)(=O)N1CCOCC1
-9%	O=C(CSCc1ccc(Br)cc1)N1CCCC1
-24%&-3%&-3%&0%	CC(=O)NS(=O)(=O)c1ccc(N)cc1
1%	CCCNC(=O)COC(=O)CCC(=O)c1ccc(F)cc1
-9%	O=S(=O)(c1ccccc1)c1nc(-c2ccccc2)oc1NCCCN1CCOCC1
-3%&-5%&4%&13%	Nc1nc2c(ncn2COC(CO)CO)c(=O)[nH]1
-11%	C/C(=N\NC(=O)c1ccc(Cn2cc(Br)cn2)o1)c1cccc(NC(=O)C(C)(C)C)c1
2%	Cc1cccc2c(N=NC(=O)C(C)n3cnc4ccccc4c3=O)c(O)[nH]c12 (stereo not drawn)
15%	CCCCCn1cnnc1SCC(=O)c1c(N)n(C2CC2)c(=O)[nH]c1=O
-17%	O=[N+]([O-])c1ccc(Cl)c(S(=O)(=O)n2ccnc2)c1
3%	COc1ccc(-c2ccc3c(N)c(C(=O)Nc4cccc(C)c4)sc3n2)cc1
-1%	O=C(C(c1ccccc1)c1ccccc1)N1CCN(CCN2C(=O)c3cccc4cccc(c34)C2=O)CC1
6%	CC(C)C(NC(=O)C(NC(=O)C1OC2OC(C)(C)OC2C2OC(C)(C)OC12)C(C)C)C(=O)O (stereo not drawn)
0%	Cc1cc(C)c(S(=O)(=O)Nc2cccc(-n3cnnn3)c2)c(C)c1
5%	O=C(CSc1nnc(C2CC2)n1C1CC1)c1ccc(F)c(F)c1
-25%	CCOC(=O)C1Nc2ccc(C)cc2C2C=CCC12 (stereo not drawn)
-1%	Cc1cc(C)nc(SCC(=O)c2ccc(F)cc2)n1
5%	CC(=O)C1=C(NC(=O)c2ccc(F)cc2)CC2C1C2(C)C (stereo not drawn)
-10%	O=C(C1CC1)N1CCc2cc(Br)cc(S(=O)(=O)N3CCN(c4ccccn4)CC3)c21
-1%	COC(=O)N/N=C/c1cc(OC)c(O)c([N+](=O)[O-])c1
3%	COc1ccc(NC(=O)C2=C(C)Nc3nc(SCc4ccccc4C)nn3C2c2cc(OC)c(O)c(OC)c2)cc1 (stereo not drawn)

The last 3 compounds of the part above come first, to join the parts:
VDR inhibitor	compound
-10%	O=C(C1CC1)N1CCc2cc(Br)cc(S(=O)(=O)N3CCN(c4ccccn4)CC3)c21
-1%	COC(=O)N/N=C/c1cc(OC)c(O)c([N+](=O)[O-])c1
3%	COc1ccc(NC(=O)C2=C(C)Nc3nc(SCc4ccccc4C)nn3C2c2cc(OC)c(O)c(OC)c2)cc1 (stereo not drawn)
-9%	CC(C)C(=O)NC(NC(=S)NC1CCS(=O)(=O)C1)C(Cl)(Cl)Cl (stereo not drawn)
-4%	Cc1ccccc1Nc1cc(C(=O)NCCc2ccc(Cl)cc2)c2ccccc2n1
-22%	CC1CN(C(=O)COC(=O)c2cccs2)CC(C)O1 (stereo not drawn)
10%	CCOC(=O)C(NC(=O)c1ccccc1)(Nc1cccc(C)n1)C(F)(F)F (stereo not drawn)
-3%	CCOC(=O)c1c(NC(=O)C2CCCCC2)sc2c1CCN(C(C)C)C2
-5%	CN1CCCCCC1=NC1=C(C#N)CCCC1
-18%	Cn1c(Br)nc2c1c(=O)n(CC(O)COc1ccccc1)c(=O)n2C (stereo not drawn)
-6%	N#CCc1nn2c3c(cnc2c1C#N)C(=O)CCC3
u	CCOC(=O)c1cccc(NC(=O)C2CCCN(S(=O)(=O)c3ccc4c(c3)oc(=O)n4C)C2)c1 (stereo not drawn)
3%	O=C(c1nnc(Cc2ccc(Cl)cc2)o1)N1CCOCC1
8%	COC(=O)c1ccc(NC(=O)CSc2nnc(Cc3cccn3C)n2-c2ccc(F)cc2)cc1
5%	CC(C)CCNC(=O)CSCc1cnn(-c2ccccc2)c1-n1cccc1
-13%	COc1ccc(-c2cc(NCc3ccccn3)n3ncnc3n2)cc1
13%	CCn1cc2nc(SCc3cc(C)ccc3C)n(Cc3ccc(Cl)cc3)c(=O)c2n1
-16%	CC(=O)NCCn1c(SCC(=O)OCc2ccccc2)nc2ccccc2c1=O
-11%	Cc1ccc(-c2nnc(Nc3cccc(O)c3)c3ccccc23)cc1S(=O)(=O)N1CCOCC1
-7%	COc1ccc(C)cc1NC(=O)COCc1cc(-c2ccc(F)cc2)on1
-1%	Cc1cccc(NC(=O)CSc2cc(C(=O)c3nccn3C)c3ccccc3n2)c1
-17%	O=C(COC(=O)CNC(=O)c1ccccc1)NCCNC(=O)COC(=O)CNC(=O)c1ccccc1
